GIRK2 activ = activators of human GIRK2 potassium channels; 63,000 compounds, 0.05% hits; P48051; calls only for hits at 25 µM; AID 1259325; HEK293-GIRK2 thallium flux, Thallos fluorescence;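 active means among the strongest 0.2% of first-round signals and kept after retests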;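 further: first round at about 10 µM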
Target sequence (P48051 whole entry, looked up): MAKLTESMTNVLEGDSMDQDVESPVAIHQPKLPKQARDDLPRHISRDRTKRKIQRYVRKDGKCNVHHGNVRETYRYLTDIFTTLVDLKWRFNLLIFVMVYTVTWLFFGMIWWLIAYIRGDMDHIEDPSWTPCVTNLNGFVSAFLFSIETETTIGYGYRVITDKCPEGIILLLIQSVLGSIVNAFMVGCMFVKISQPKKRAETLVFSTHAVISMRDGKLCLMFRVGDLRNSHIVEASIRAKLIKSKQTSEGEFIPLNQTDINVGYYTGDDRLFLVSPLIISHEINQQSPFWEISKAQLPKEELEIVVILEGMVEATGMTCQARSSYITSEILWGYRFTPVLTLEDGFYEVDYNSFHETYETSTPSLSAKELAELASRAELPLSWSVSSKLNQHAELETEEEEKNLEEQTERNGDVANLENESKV
Calls only; i = inactive.

SMILES	GIRK2 activ
CN(C)c1cccc(C(=O)N2CCN(C(=O)C3CC3c3ccc(F)cc3)CC2)c1 (centres undefined)	i
O=C(c1csc(-c2cc3ccccc3[nH]2)n1)N1CCN(CCc2ccccc2)CC1	i
O=C(NCCC1=CCCCC1)c1ccc(Cn2c(=O)[nH]c3ccccc3c2=O)cc1	i
CCCCC/C=C\C/C=C\C/C=C\C/C=C\CCCC(=O)OCC	i
O=C(Oc1ccc2c(c1)O/C(=C\c1cccnc1)C2=O)c1ccc(Cl)cc1	i
COc1cc(NC=C2C(=O)OC3(CCCCC3)OC2=O)c(OC)cc1Cl	i
Cn1nnn(-c2ccc(NC(=O)C3c4ccccc4Oc4ccccc43)cc2)c1=O	i
CCCc1ccc(S(=O)(=O)NCC2CCN(C(C)C)CC2)cc1	i
O=C(c1cc(-c2cccs2)on1)N1CCCC(c2nnc(-c3ccccc3F)s2)C1 (centres undefined)	i
O=C(Cc1ccccc1Cl)NCC1CCN(Cc2ccsc2)CC1	i
CCc1ccc(CNC(=O)c2nnn(-c3ccc(Cl)cc3)c2-c2cccnc2)cc1	i
Cc1cc(C(=O)OCC(=O)Nc2ccc3c(c2)OCO3)n[nH]1	i
Cc1ccccc1N1CC(C)Cn2c1nc1c2c(=O)n(CC(N)=O)c(=O)n1C (centres undefined)	i
COc1ccc(S(=O)(=O)N2CCN(Cc3cc(Br)ccc3OC)CC2)cc1	i
COc1ccc(C(=O)Nc2c3c(nn2CC(=O)NCCc2ccccc2)CSC3)cc1	i
COC(=O)c1sccc1S(=O)(=O)N1CC(c2nc(C3CC3)no2)C1	i
COc1cccc(C2NC(=O)NC(C)=C2C(=O)Nc2cc(C)ccc2C)c1 (centres undefined)	i
O=S(=O)(c1cccs1)N1CCN(c2cc(N3CCOCC3)ncn2)CC1	i
Cc1nc(SCc2ccccc2F)[nH]c(=O)c1CC(=O)NCc1ccccc1Cl	i
COc1ccc(Nc2c(C#N)cnc3ccccc23)cc1Cl	i

No new results follow: entries from further up.
SMILES	GIRK2 activ
CCc1ccc(CNC(=O)c2nnn(-c3ccc(Cl)cc3)c2-c2cccnc2)cc1	i
Cc1cc(C(=O)OCC(=O)Nc2ccc3c(c2)OCO3)n[nH]1	i
Cc1ccccc1N1CC(C)Cn2c1nc1c2c(=O)n(CC(N)=O)c(=O)n1C (centres undefined)	i
COc1ccc(S(=O)(=O)N2CCN(Cc3cc(Br)ccc3OC)CC2)cc1	i

7 entries already listed, ordered by count of non-hydrogen atoms, rising.
SMILES	GIRK2 activ
Cc1cc(C(=O)OCC(=O)Nc2ccc3c(c2)OCO3)n[nH]1	i
COC(=O)c1sccc1S(=O)(=O)N1CC(c2nc(C3CC3)no2)C1	i
COc1cccc(C2NC(=O)NC(C)=C2C(=O)Nc2cc(C)ccc2C)c1 (centres undefined)	i
Cc1ccccc1N1CC(C)Cn2c1nc1c2c(=O)n(CC(N)=O)c(=O)n1C (centres undefined)	i
Cc1nc(SCc2ccccc2F)[nH]c(=O)c1CC(=O)NCc1ccccc1Cl	i
CCc1ccc(CNC(=O)c2nnn(-c3ccc(Cl)cc3)c2-c2cccnc2)cc1	i
COc1ccc(C(=O)Nc2c3c(nn2CC(=O)NCCc2ccccc2)CSC3)cc1	i

The list continues.
SMILES	GIRK2 activ
COCCN1CCC(NC(=O)c2snnc2C)CC1	i
COc1ccc(/C=C2\Oc3c(ccc4c3CN(Cc3ccc(OC)c(OC)c3)CO4)C2=O)cc1OC	i
Cc1c(C)n2c3c(=O)[nH]c(=O)n(C)c3nc2n1C(C)c1ccccc1 (centres undefined)	i
Cc1nnc(NC(=O)CN2CC(c3nc(-c4ncccn4)no3)C2)s1	i
COc1c2ccoc2c(CC(O)C(C)(C)O)c2oc(=O)ccc12 (centres undefined)	i
COC(=O)c1ccccc1NC(=O)c1c(C)cc(C)cc1C	i
Cc1cccc2c(C3=C(c4cn(C)c5ccccc45)C(=O)NC3=O)cn(C)c12	i
Cn1nc(CNS(=O)(=O)c2ccc(Cl)s2)cc1C1CC1	i
CC(=O)N1CCC(C(=O)N2CCN(C(=O)C3CC3c3ccccc3)CC2)CC1 (centres undefined)	i
CC1(C)COC(CC(=O)c2ccc(Br)cc2)=N1	i
C=CCOc1ccc(C2C(=C(O)c3ccccc3)C(=O)C(=O)N2c2cc(C)on2)cc1 (centres undefined)	i
COc1cccc2sc(OC3CN(C(=O)c4ccccc4SC)C3)nc12	i
Cc1ccc(S(=O)(=O)Nc2ccc(Nc3cc(-n4cccn4)ncn3)cc2)c(C)c1	i
Cc1c(C(=O)N(C)C)sc2[nH]c(=O)c(C(=O)Nc3cccc(F)c3)c(O)c12	i
O=S(=O)(Nc1cnc(N2CCN(c3ccccn3)CC2)nc1)c1cc(F)ccc1F	i
Cc1ccc(NC(=O)OCc2ccccc2)cc1N1CCCC1=O	i
CC(C)(C)NC(=O)N1CCC(CNS(=O)(=O)Cc2cc(F)ccc2F)CC1	i
COc1ccc(OC)c(NC(=O)Cn2nc3ccc(SC(C)C)nn3c2=O)c1	i
CCc1ccc(NC(=O)c2cn(Cc3ccc(NC(=O)Cc4ccc(OC)cc4)cc3)cn2)cc1	i
O=C(CNC(=O)c1ccc(=O)[nH]c1)NCc1cccs1	i
CN(CC(=O)NC12CC3CC(CC(C3)C1)C2)c1nc2c(F)cccc2s1	i
COC(=O)N1CCc2ccccc2C1C(=O)Nc1ccc(S(=O)(=O)Nc2cc(C)nc(C)n2)cc1 (centres undefined)	i
O=C(CSc1ncccn1)N1CCCC1	i
COC(=O)c1ccc(S(=O)(=O)NCC2(O)CCOc3ccccc32)cc1 (centres undefined)	i
Cc1c(C)n2c3c(=O)n(C)c(=O)n(C)c3nc2n1CCc1ccccc1	i
COC(=O)c1cc(OCC(=O)Nc2ccc(OC)c(OC)c2)c2cc(OC)ccc2n1	i
O=C(Cn1nnn(-c2ccc(NC(=O)c3ccco3)cc2)c1=O)NC1CC1	i
CC(C)N(C(=O)CN1CCC(c2nc3ccccc3[nH]2)CC1)C(C)C	i
CNC(=O)/C(C#N)=C1\SC(Cc2ccc(Cl)cc2Cl)C(=O)N1c1ccc(F)cc1 (centres undefined)	i
O=C(Nc1ccccc1)OC1CCCC(NS(=O)(=O)Cc2ccccc2)C1 (centres undefined)	i

Random excerpt: 3 entries already listed
SMILES	GIRK2 activ
COC(=O)c1cc(OCC(=O)Nc2ccc(OC)c(OC)c2)c2cc(OC)ccc2n1	i
O=C(Cn1nnn(-c2ccc(NC(=O)c3ccco3)cc2)c1=O)NC1CC1	i
O=C(Nc1ccccc1)OC1CCCC(NS(=O)(=O)Cc2ccccc2)C1 (centres undefined)	i

(listing goes on)
SMILES	GIRK2 activ
O=C(c1cc2cc(Cl)ccc2[nH]1)N1CCN(Cc2nncn2-c2ccccc2F)CC1	i
Cc1cc(N2C(=O)C(=O)C(=C(O)c3ccc(Cl)cc3)C2c2ccc(O)cc2)no1 (centres undefined)	i
CCOc1ccc(C2NC(=O)NC(C)=C2C(=O)Nc2ccc(Cl)cc2)cc1OC (centres undefined)	i
CCc1c(C)nc2n(c1=O)CC(C(=O)NCCCn1ccnc1)CS2 (centres undefined)	i
O=C(Cc1cc(=O)[nH]c(SCc2ccccc2F)n1)NCCCc1ccccc1	i
COc1cc(Cl)c(C)cc1NC(=O)Cn1cnc2c(-c3ccc(F)cc3)csc2c1=O	i
Cc1cc(NC(=O)CSc2nnc(N3CCN(C(=O)c4ccccc4Cl)CC3)s2)no1	i
COC(=O)C(C)Oc1ccc2c(c1)O/C(=C\c1cc(OC)c(OC)cc1OC)C2=O (centres undefined)	i
O=C(NCc1ccco1)c1cc(OCc2ccccc2)no1	i
C=C1C(=O)O[C@H]2[C@H]1[C@@H](OC(=O)/C(C)=C\C)C[C@]1(C)O[C@@H]1[C@H]1O[C@H]1C(=C)[C@H]2O	i
COc1ccc(CCNC(=O)Nc2ccc(-c3cnc4n3CCC4)cc2)cc1	i
CCN(CC)CC(=O)Nc1c(C)cc(C(C)(C)C)cc1C	i
CCC(=O)N1CCCc2ccc(NC(=O)c3ccc(OC)c(OC)c3)cc21	i
CC1CN(Cc2ccccc2)c2nc3c(c(=O)n(CCN4CCCCC4)c(=O)n3C)n2C1 (centres undefined)	i
CSc1ccc(/C=C2\C=C(CC(=O)NCc3ccccc3C)c3cc(F)ccc32)cc1	i
Cc1cc(C)cc(OCC(=O)NCCOc2cc(N3CCOCC3)ncn2)c1	i
COc1cc(OC)cc(C(=O)Nc2ccc3c(c2)CCC(=O)N3)c1	i
CC(=O)c1ccc(NC(=O)CN2CCC(COCc3ccc(Cl)cc3)CC2)cc1	i
CCN1CCN(c2nc3c(c(=O)n(C)c(=O)n3C)n2CC(O)COc2ccc(OC)cc2)CC1 (centres undefined)	i
CN(C)C(=O)c1nnn(-c2ccc(NC(=O)c3ccc(S(=O)(=O)N(C)C)cc3)cc2)n1	i
CCn1c(=O)c2c(nc3n2CC(C)=NN3CC(C)=O)n(C)c1=O	i
COc1ccc(-c2cnc(CNC(=O)c3ccc4c(c3)OCO4)[nH]2)cc1	i
NS(=O)(=O)c1ccc(NC(=O)Cc2csc(Nc3ccccn3)n2)cc1	i
O=C(NCCC(O)c1ccccc1)NCc1ccccc1 (centres undefined)	i
C=CCc1ccc(O)c(-c2ccc(O)c(CC=C)c2)c1	i
COc1ccc(S(=O)(=O)NCC(c2ccc(C)cc2)N2CCN(C)CC2)cc1OC (centres undefined)	i
O=C(CSc1ncc(CO)n1Cc1ccc(Cl)cc1)Nc1ccc(Cl)cc1	i
CCCCNC(=O)c1cccc(-n2ccnc2SCC(=O)NCc2ccc(SC)cc2)c1	i
O=C(CC(C(=O)O)N1CCOCC1)Nc1cc(Cl)ccc1Cl (centres undefined)	i
CCOC(=O)c1c(-c2ccccc2)oc2ccc(OS(C)(=O)=O)cc12	i
Cc1ccc(-c2noc(CN3N=NC4C(=O)N(c5ccc(Br)cc5)C(=O)C43)n2)cc1 (centres undefined)	i
CS(=O)(=O)c1cccc(C(=O)Nc2nc(-c3cc4ccccc4o3)cs2)c1	i
COCCn1c(SCc2nc(-c3cccc(Cl)c3)oc2C)nc2ccccc2c1=O	i
O=C(Nc1ccc(-c2cnc3n2CCC3)cc1)c1cc2ccccc2oc1=O	i
O=C(CCCc1nnc2c(=O)n(-c3ccc(Cl)cc3)ccn12)NCc1ccccn1	i
CC(=O)c1ccc(N2CCN(C(=O)Cn3cccn3)CC2)cc1	i
O=C(Nc1nc(CCC(=O)N2CCN(C(=O)c3ccco3)CC2)cs1)c1ccco1	i
COc1cccc(C2c3c(oc4ccc(C)cc4c3=O)C(=O)N2c2nccs2)c1OC (centres undefined)	i
O=C(NCc1ccccc1)N1CCC(Cn2ccnc2)CC1	i
COc1ccc(CCC(=O)NCc2cnn3ccccc23)cc1	i
COc1ccc(NC(C)=O)cc1NC(=O)C1CSCCC(=O)N1 (centres undefined)	i
Cc1cccc(C)c1NCC(=O)Nc1ncc(Cc2ccccc2)s1	i
CCCS(=O)(=O)NCCNC(=O)c1ccc(NC(=O)C2CC2)cc1	i
N#C/C(=C\N1CCN(c2ccc(F)cc2)CC1)S(=O)(=O)c1ccc(Cl)cc1	i
O=C(NC1(c2nc(-c3ccccc3)no2)CCCCC1)c1cccs1	i
CSc1cccc(NC(=O)N2CCN(c3ccc(C)nn3)CC2)c1	i
COc1ccc(S(=O)(=O)N2CCCOC2CNC(=O)C(=O)NC2CCCCC2)cc1C (centres undefined)	i
Cn1cc(C(=O)N2CC(c3nc(-c4ccc[nH]c4=O)no3)C2)nn1	i
CCOC(=O)c1ccccc1NC(=O)Cn1nc(C2CCCN(S(C)(=O)=O)C2)n(C)c1=O (centres undefined)	i
C=CCn1c(=O)c2ccc(C(=O)NCC(C)C)cc2n2c(=O)n(CC(=O)NC(C)C)nc12	i

Carrying on.
SMILES	GIRK2 activ
COc1ccc(-c2csc(CN3CCN(C(=O)c4ccc5c(c4)OCO5)CC3)n2)cc1	i
CNC(=O)C(=O)NCCC1CCCCN1S(=O)(=O)c1c(C)cc(C)cc1C (centres undefined)	i
Cc1cc(C)c(C)c(S(=O)(=O)N2CCC(S(C)(=O)=O)C2)c1C (centres undefined)	i
COc1ccc2c(c1)c(CC(=O)N(C)CCc1ccccc1)c(C)n2C(=O)c1ccc(Cl)cc1	i
Cc1c(Cl)cccc1N1CCCn2c1nc1c2c(=O)n(CC(=O)O)c(=O)n1C	i
COc1ccc(CNC(=O)Cn2nc3c(SC4CCCCC4)nccn3c2=O)cc1	i
O=C(/C=C/c1ccco1)Nc1nc2c(s1)CN(S(=O)(=O)C1CC1)CC2	i
CCC(=O)N1CCCC(c2nnc(C(F)(F)F)o2)C1 (centres undefined)	i
COc1ccc(-c2csc3c(=O)[nH]c(N4CCCC(C(=O)NCc5ccco5)C4)nc23)cc1OC (centres undefined)	i
Cc1nn(C)cc1C(=O)Nc1ccc(S(=O)(=O)Nc2nccs2)cc1	i
Cc1nc(-n2nc(-c3cccs3)cc2NC(=O)COc2ccc(C(C)C)cc2)[nH]c(=O)c1C	i
COc1ccc(OC)c(-n2nnc(C(=O)NCc3ccco3)c2N)c1	i
COc1ccc(-c2cc(=O)n(CCNS(=O)(=O)c3cccnc3)cn2)cc1	i
COc1ccc(S(=O)(=O)N2CCCOC2CNC(=O)C(=O)NCCC(C)C)cc1OC (centres undefined)	i
O=S(=O)(c1ccc2c(c1)OCCO2)N1CCCC(c2nnc(-c3ccccc3F)s2)C1 (centres undefined)	i
COc1ccccc1NCC(=O)Nc1ncc(Cc2cccc3ccccc23)s1	i
NC(=O)C1CCN(C(=O)CCc2csc(NC(=O)Nc3ccccc3)n2)CC1	i
COc1ccc(C2(CNS(=O)(=O)c3ccc(F)c(Cl)c3)CCOCC2)cc1	i
CCOCCn1c(=O)c2c(nc3n2CCN3c2ccc(CC)cc2)n(C)c1=O	i
COc1cccc(NC(=O)CSc2nc3c(-c4ccccc4)c[nH]c3c(=O)n2C2CC2)c1	i
CN(C)S(=O)(=O)N1CCC(N2CCC(O)C2)CC1 (centres undefined)	i
CCOC(=O)N1CCc2c(sc(NC(=O)c3ccccc3C)c2-c2nc3ccccc3s2)C1	i
COc1ccc(C(=O)Oc2cc(C)c3c(c2)O/C(=C\c2ccncc2)C3=O)cc1OC	i

Source: PubChem

Only part of the results is shown. The share of hits here may be higher or lower than overall.
